Bioassay records deposited in PubChem BioAssay by several laboratories.
PrP 5UTR inh – inhibition of PrP 5' UTR reporter expression. 0.35% of 340,000 active. cell-based PrP 5' UTR mRNA reporter, plate reader. inhibition, % (concentration not given with the values);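 active = every replicate at 50% or more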;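 note: 0 = median of the neutral control wells; tested in H4 reporter cells; numbers are from one replicate; inactives centre near -14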
BJeLR lethal – kills HRASV12-expressing BJeLR cells; BJeLR (HRASV12) viability, CellTiter-Glo ATP luminescence, 48 h; reference of the scale not given here; AID 1554; 0.17% of 300,000 active; inhibition, % (no concentration beside the values);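 active = replicate mean above 50%; inconclusive = above 50% but judged a plate artefact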;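 note: 50 nL library stock added to about 25 µL; numbers are from one replicate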
Sa RN4220 lethal – S. aureus RN4220 growth inhibition; inhibition, % (concentration not given with the values); OD600, 16 h; 0.33% of 330,000 active;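 active = z-score of -3 or lower and OD600 up to 0.18 on both plates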;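 note: plate controls were untreated cells for no effect and reference antibiotic for full effect; stock transfer was 100 nL into about 80 µL; one replicate is shown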
Autofluor counter – compound fluorescence in toxin protease inhibitor counterscreen. fluorescence intensity (no concentration beside the values). compound autofluorescence counterscreen, microsphere flow cytometry; active compounds read high. AID 624483. 3.1% of 360,000 active;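 active = at least 3 SD above the mean of all compounds, about 16000 in these data; inconclusive = too few beads counted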;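 note: 100 nL of 1 mM stock went into each well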
Mtb hypoxia rep – reduces hypoxia-regulated biosensor signal in M. tuberculosis; M. tuberculosis hypoxia-regulated fluorescent reporter, fluorescence; fluorescence inhibition, % (no concentration beside the values); 0.1% of 300,000 active;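 active = 35 to 45% if threefold the growth effect, above 45% if 1.5-fold the growth effect; inactive = the rest, general growth blockers included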;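 note: wells of about 50 µL received 100 nL stock; 0% = vehicle wells and 100% = reference inhibitor wells; whole bacteria with a GFP reporter of the hypoxia response; strong numbers were not always called active; many hits fall short of the cut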
Sa ugtP lethal – growth inhibition of S. aureus ugtP deletion strain; S. aureus RN4220 ugtP deletion, OD600 growth, 16 h; some inactives read as strong as hits; growth inhibition, % (no concentration beside the values); 0.54% of 330,000 active;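 active = z-score under -3 and OD600 up to 0.15 on both plates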;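 note: plate controls were untreated wells for no effect and antibiotic for full effect; wells of about 80 µL received 100 nL stock; the first replicate is given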
Mtb hypoxia rep growth – recorded beside Mtb hypoxia rep, whose call it bears; growth inhibition, %; measured here: M. tuberculosis growth (absorbance);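 0% = vehicle and 100% = reference antibiotic; read after six days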
The depositor's hits bear a star; ? = inconclusive; . = no result given.

canonical_smiles,Mtb hypoxia rep growth,Sa RN4220 lethal,BJeLR lethal,Mtb hypoxia rep,Autofluor counter,PrP 5UTR inh,Sa ugtP lethal
CCSc1nc(-c2ccccc2)cc(=O)[nH]1,9,4.0,.,1,2896,-17,-1
Cc1cc(NC(=O)CSc2nc(=O)n(CCCN(C)C)c3c2CCCC3)no1,5,0.4,11,3,5767,4,0
CCCCn1c(-c2ccc(C(C)(C)C)cc2)nc2cc3[nH]c(=O)c(C(C)C)nc3cc21,19,-2.9,6,15,3832,-11,-39
Cc1ccc(NS(=O)(=O)c2cccc(C(=O)n3ncc(C#N)c3N)c2)c(C)c1,-19,4.0,-6,-71,3835,-24,2
Cc1ccc(-n2ncc3c(SCC(=O)Nc4cc(C)on4)ncnc32)c(C)c1,-2,-2.3,0,1,4636,-16,0
O=C(c1ccc([N+](=O)[O-])cc1)N1CCN(C2=NS(=O)(=O)c3ccccc32)CC1,5,-1.6,0,-7,?,-4,-8
COc1ccc(/C=C/c2c(-c3ccc(OC)cc3)oc3cccnc23)cc1,13,-0.9,-1,2,3831,0,40
O=C(CCCCCNC(=O)c1ccccc1)N/N=C/c1ccccc1,.,.,4,.,2270,-17,.
c1coc(CN(Cc2cccs2)Cc2nnnn2C2CCCCC2)c1,7,-9.5,-17,18,3021,-25,-23
Cn1cnnc1SCC(=O)Nc1ccc(N2CCOCC2)cc1,2,1.7,1,10,3860,-28,6
Clc1ccc(-n2nnnc2-c2ccccc2)cc1Cl,3,2.7,.,8,6384,-18,6
Cc1cc(-c2nnc(CCC(=O)N(C)C(C)c3cccs3)o2)no1 (stereo unspecified),8,3.8,-3,-5,6139,-43,1
Cc1c(C(=O)c2ccc([N+](=O)[O-])cc2)c(=O)n(C)c(=O)n1C,2,8.2,-2,5,2212,-7,-3
O=C(Nc1ccc2c(c1)OCO2)c1cccc(Cl)c1,.,1.5,10,.,3199,-92,-5
CC(C(=O)N1CCCc2ccccc21)N1CCN(S(=O)(=O)c2ccccc2F)CC1 (stereo unspecified),.,3.1,-8,.,2459,-25,0

The final 2 records of the part above open the next one.
canonical_smiles,Mtb hypoxia rep growth,Sa RN4220 lethal,BJeLR lethal,Mtb hypoxia rep,Autofluor counter,PrP 5UTR inh,Sa ugtP lethal
O=C(Nc1ccc2c(c1)OCO2)c1cccc(Cl)c1,.,1.5,10,.,3199,-92,-5
CC(C(=O)N1CCCc2ccccc21)N1CCN(S(=O)(=O)c2ccccc2F)CC1 (stereo unspecified),.,3.1,-8,.,2459,-25,0
O=C(Nc1ccccc1)c1ccn[nH]1,8,1.0,6,10,2448,-70,-9
Cc1nc2ccccn2c1C(=O)Nc1ccc(Cl)cc1,4,7.5,-15,9,4159,-46,6
COc1cnc(SC(C)C)[nH]c1=O,3,6.3,-2,7,4710,-12,5
CC(C)C(=O)NNC(=O)c1ccccn1,2,2.9,-14,6,9015,-3,3
CCOc1cc(C=NNC(=O)c2cccc(S(=O)(=O)N3CCOCC3)c2)ccc1OCC(=O)N(C)C,2,4.4,.,5,.,.,8
Cc1cccc(C(=O)NC(C(=O)Nc2ccccc2N2CCOCC2)C(C)C)c1 (stereo unspecified),5,6.1,-14,7,3839,-16,3
Cc1ccc(S(=O)(=O)N(C)C)cc1NC(=O)C(C)OC(=O)C1CCC1 (stereo unspecified),8,4.1,.,6,3841,-3,1
N#C/C(=C\C=C\c1ccccc1[N+](=O)[O-])C(=O)NC1CCCCC1,11,5.3,7,3,3219,-42,-7
NC(=NO)c1ccccc1-n1cccc1,2,5.8,.,11,.,.,5
O=C(CCS(=O)(=O)c1ccc(Br)cc1)Nc1ccc(Br)cc1F,7,5.1,7,14,2519,-11,5
CCC(c1ccccc1)c1nc(-c2cccnc2)no1 (stereo unspecified),16,3.2,8,8,1990,-23,1
COc1ccc(OCC(=O)Nc2ccc(N3CCN(C(=O)c4ccco4)CC3)cc2)cc1,9,12,-6,4,4088,-5,6
CCN(CC)S(=O)(=O)c1ccc2c(c1)N(CC(=O)NCCCN1CC(C)CC(C)C1)C(=O)CO2 (stereo unspecified),13,1.3,2,10,5581,-13,3
CCN(CC)c1ccc2c(O)cc(=O)oc2c1,1,6.0,-4,10,3826,-3,5
CCOC(=O)c1c(C)[nH]c(C(=O)CSc2nnnn2-c2ccccc2)c1C,-7,4.8,-1,3,5570,-2,7
Nc1nc2nc(-c3cccs3)cc(C(F)(F)F)n2n1,6,5.0,-2,13,3683,-54,1
CCN1CCCC1CNC(=O)C(=O)NCCc1ccc(OC)c(OC)c1 (stereo unspecified),18,2.4,-1,3,4307,-47,4
Nc1nc(SCc2nc3scc(-c4cccs4)c3c(=O)[nH]2)n[nH]1,.,3.0,0,.,5232,-10,-11
COc1ccc(NC(=O)c2cc(-c3ccco3)nc3ccccc23)cn1,-4,1.4,.,5,4565,6,-2
CNC(=O)c1ccc(NC(=O)Nc2ccccc2)cc1,0,2.3,4,11,4039,-20,0
CCOc1ccccc1NC(=O)C1CCCN1S(=O)(=O)c1ccccc1C(F)(F)F (stereo unspecified),-1,2.4,.,8,7879,-11,-2
COc1ccccc1NS(=O)(=O)c1ccc2oc(SCC(C)=O)nc2c1,2,12,1,1,5152,-14,3
O=C(COC(=O)CNC(=O)c1ccc(Cl)c([N+](=O)[O-])c1)NNC(=O)c1ccccc1F,3,3.7,.,3,7022,-18,6
COc1ccccc1NC(=O)c1csc2c1CCCC2,17,7.7,-2,6,19509*,-7,9
N#Cc1cncc(-c2ccc3c(c2)OCCOCCOCCOCCOCCO3)n1,7,4.6,2,4,2619,-32,5
CCN(CC)c1ccc(C(=O)N/N=C(\C)c2cccc(OC)c2)cc1,.,.,-4,.,2433,-17,.
COc1ccc(OC)c(Nc2nc(NCCC(C)C)nc(N)c2[N+](=O)[O-])c1,8,7.9,-5,4,4200,-6,-36
Cc1ccc(N(C(=O)CCl)C(C(=O)NC2CCCCC2)c2cccnc2)cc1C (stereo unspecified),25,16,101*,22,.,.,-4
CCOc1ncccc1C(=O)OCC(=O)N1CCN(S(=O)(=O)c2ccc(Cl)cc2)CC1,8,1.1,1,14,3549,-41,7
Cc1ccc(N(Cc2cc3cc(C)ccc3[nH]c2=O)S(=O)(=O)c2ccccc2)cc1,0,8.2,-7,10,2086,-7,0

Of the compounds above, three contain a cyano group:
canonical_smiles,Mtb hypoxia rep growth,Sa RN4220 lethal,BJeLR lethal,Mtb hypoxia rep,Autofluor counter,PrP 5UTR inh,Sa ugtP lethal
Cc1ccc(NS(=O)(=O)c2cccc(C(=O)n3ncc(C#N)c3N)c2)c(C)c1,-19,4.0,-6,-71,3835,-24,2
N#C/C(=C\C=C\c1ccccc1[N+](=O)[O-])C(=O)NC1CCCCC1,11,5.3,7,3,3219,-42,-7
N#Cc1cncc(-c2ccc3c(c2)OCCOCCOCCOCCOCCO3)n1,7,4.6,2,4,2619,-32,5

Going on with the list.
canonical_smiles,Mtb hypoxia rep growth,Sa RN4220 lethal,BJeLR lethal,Mtb hypoxia rep,Autofluor counter,PrP 5UTR inh,Sa ugtP lethal
COc1ccc2c(c1)N(C)C(=O)CC(c1ccccc1)=N2,.,-0.4,-8,.,4252,-34,9
CCN(CC)c1ccc(/C=N/NC(=O)Cc2cccs2)cc1,.,.,-1,.,10418,-12,.
Cc1cccc(N(C(=O)CNC(=O)c2cccs2)C(C(=O)NC2CCCC2)c2ccncc2)c1 (stereo unspecified),5,1.5,5,11,5124,-14,14
CC12CN3CC(C)(CN(C1)C3c1ccc3c(c1)OCO3)C2=O (stereo unspecified),10,5.9,-8,8,10647,-14,0
CCCOc1cccc(C2/C(=C(/O)c3ccc4c(c3)CC(C)O4)C(=O)C(=O)N2CCN2CCOCC2)c1 (stereo unspecified),-7,5.4,10,-2,4123,-14,2
CC(NC(=O)C1CCN(S(=O)(=O)N2CCCCCC2)CC1)c1ccccc1 (stereo unspecified),8,3.5,4,5,9290,-21,-1
NC1=NC(=O)/C(=C/c2ccc(-c3ccc(S(N)(=O)=O)cc3)o2)S1,.,.,2,.,4094,-6,.
CS(=O)(=O)N1CCN(C(=O)c2ccc3c(c2)OCCO3)CC1,2,-3.0,-4,-1,4208,-20,3
CN(C)CCCNC(=O)c1ccccc1Oc1ccccc1,4,4.5,-4,16,3915,-11,4
CCOc1cc(/C=C(\C#N)C(=O)NCc2cccnc2)ccc1O,-1,4.0,-3,-5,2247,-24,4
COc1ccccc1C(=O)NS(=O)(=O)c1ccc(C)cc1,40,0.5,.,15,3956,-18,5
CC1CCCC(NC(=O)COC(=O)c2ccc(Cl)nc2)C1C (stereo unspecified),25,2.1,.,14,5939,-18,4
CCc1ccc(C(=O)/C=C/Nc2ccc(S(=O)(=O)Nc3onc(C)c3C)cc2)cc1,18,10,10,2,2197,-15,-13
CCOC(=O)C1CCCN(CC(O)=C(C#N)c2nc(-c3ccccc3)cs2)C1 (stereo unspecified),-18,-0.7,.,-3,.,.,0
Cc1ccc(NC(=O)C2COc3ccccc3O2)cc1 (stereo unspecified),3,3.1,-9,3,3535,-82,4
COCC(C)NC(C(=O)Nc1ccc(Cl)c([N+](=O)[O-])c1)c1ccccc1 (stereo unspecified),3,4.0,10,-6,7029,-10,2
Cc1ccc(CN2CCC(c3cc(-c4cccs4)n[nH]3)CC2)cc1,.,.,-4,.,4218,-34,.
Cc1ccc(C(=O)N2CCCC(N3CCN(c4cccc(C(F)(F)F)c4)CC3)C2)s1 (stereo unspecified),5,4.0,2,2,6477,-11,3
CCOc1ccc2nc(N(CCCN(C)C)C(=O)c3ccc(C(=O)c4ccccc4)cc3)sc2c1,-3,-0.4,5,19,4491,3,-4
Cn1ncc(Cl)c1C(=O)N/N=C/c1ccccn1,.,.,-15,.,2624,-12,.
COc1cccc(C2(c3cccc(OC)c3)CC2C(=O)Nc2cccc3ccccc23)c1 (stereo unspecified),-2,7.0,-4,4,9724,3,53
CCn1nnnc1NC(=O)c1ccc2ccccc2c1,0,12,-4,10,3366,-11,5
CCn1c(COc2ccccc2C)nnc1SCC(=O)O,7,1.7,-1,4,9212,-22,1
COc1cc2c(cc1OC)C(C)N(C(=O)c1ccc(Cl)c(S(=O)(=O)N3CCCCC3)c1)CC2 (stereo unspecified),13,4.3,1,10,5245,-9,11
COc1ccc(C)cc1S(=O)(=O)Nc1cc2c3c(c1)CCN3C(=O)CC2,3,4.2,-1,5,5193,-6,3
c1cnc2ccc(C(c3nnnn3C3CCCC3)N3CCN4CCCC4C3)cc2c1 (stereo unspecified),-8,-1.1,-2,-2,4602,-13,2
O=C(c1ccc(COc2ccccc2Br)cc1)N1CCCCCC1,11,7.8,-2,4,2811,-38,0
